Beta2AR agonist: beta2AR agonists driving receptor internalization, primary screen, cell-based, FAP fluorogen, flow cytometry. AID 504454, 2011. response, % (concentration not given with the values). Beta-2 adrenergic receptor (Homo sapiens), P07550. 0.43% of 340,000 active. Am2.2-beta2AR cells; reference of the scale not given here;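 active means response above a set limit, near 3 SD of response in nonfluorescent compounds, cut at about 42% in these data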;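 further: stock transfer was 100 nL into about 11 µL; a reference agonist was the positive control; negative values mostly stem from fluorescent compounds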
Target sequence (P07550 whole entry, looked up): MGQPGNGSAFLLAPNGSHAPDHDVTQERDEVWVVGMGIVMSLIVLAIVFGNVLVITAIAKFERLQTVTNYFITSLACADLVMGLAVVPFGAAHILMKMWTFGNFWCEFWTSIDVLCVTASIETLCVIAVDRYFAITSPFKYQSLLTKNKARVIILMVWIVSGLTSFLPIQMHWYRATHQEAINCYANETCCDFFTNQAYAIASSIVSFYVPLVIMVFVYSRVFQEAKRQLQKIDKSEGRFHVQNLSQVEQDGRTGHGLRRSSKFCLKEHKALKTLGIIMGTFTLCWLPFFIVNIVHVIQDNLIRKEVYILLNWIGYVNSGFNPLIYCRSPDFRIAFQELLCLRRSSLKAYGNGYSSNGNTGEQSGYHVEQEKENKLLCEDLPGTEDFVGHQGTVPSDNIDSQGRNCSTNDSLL
T cruzi repl: inhibitors of intracellular T. cruzi growth, primary screen, luminescence, NIH3T3 host cells; T. cruzi beta-gal in NIH3T3, 90 h; inhibition, % (test concentration not listed); 1.4% of 300,000 active;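 active means mean inhibition across valid replicates above about 55%, limit read from the data; inconclusive means mean below that limit but half or more replicates reach it; inactive means mean below it, under half of replicates reach it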;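 further: signal also drops with host cell toxicity which is not excluded here; 0% = plate median of DMSO wells and 100% = zero luminescence signal; higher percent means less beta-gal luminescence so fewer parasites; stock transfer was 50 nL into about 50 µL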
A1 inh: caspase 3/7 activation in MEF A1-2A-BIM cells, primary screen, A1 inhibitor project, cell-based, luminescence, HTS | caspase activation, % (concentration not given with the values) | 0.066% of 330,000 active | Caspase-Glo 3/7 luminescence, 3 h; percent of clofoctol response, vehicle zero | AID 2462, 2010;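 active means over half of replicate activation scores above 10%, or exactly half above 10 with the replicate mean above 10; inconclusive means replicate mean below 10 yet half the replicates above 10; inactive means over half of replicates below 10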;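 further: wells of about 30 µL received 50 nL stock; many hits fall short of the cut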
Calb FLC: C. albicans growth inhibition with fluconazole, primary screen, CaCi-2 strain, Alamar Blue fluorescence. C. albicans CaCi-2 (fluconazole-resistant clinical isolate) + fluconazole, 48 h. 0.57% of 300,000 active. growth inhibition, % (concentration not given with the values);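 active means most replicates above 75%; inconclusive means exactly half above 75%; inactive means most below 75%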;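 further: all wells also contain fluconazole at 8 µg/ml as a sub-toxic cotreatment; 0% = median of DMSO wells and 100% = median of geldanamycin control wells; wells of about 8 µL received 7.5 nL stock; the first replicate is given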
RanGTP-Imp inh: inhibitors of RanGTP-importin-beta interaction, primary screen, biochemical, FRET, CFP-Ran, YFP-importin-beta, homogeneous | Ran GTPase (GTP-bound) - importin-beta complex | cell-free CFP-Ran/YFP-importin-beta FRET ratio | inhibition, % (no concentration beside the values) | 1.1% of 300,000 active | AID 2216, 2009;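 active means most replicates above 15%; inconclusive means exactly half above 15%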;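 further: 0% = DMSO wells and 100% = Ran loaded with GDP instead of GTP; wells of about 40 µL received 100 nL stock; the first replicate is given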
LANA-H2A inh: blockers of LANA interaction with H2A/H2B – biochemical, FP readout, HTS, primary screen | cell-free LANA-H2A/H2B peptide, fluorescence polarization | inhibition, % (no concentration beside the values) | 0.6% of 320,000 active | AID 2629, 2010; in the data active means inhibition mostly above about 10%, no sharp cut-off; inactive means mostly below about 6.7%;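 further: stock transfer was 7.5 nL into about 10 µL; 0% = median of vehicle wells and 100% = median of positive control wells; one replicate is shown; the record names a cut of 25% in any replicate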
Beta apoptosis: inhibitors of cytokine-induced beta cell apoptosis, primary screen, luminescence | INS-1E cytokine-induced death, ATP luminescence, 48 h; percent of positive-control rescue, neutral wells zero | protection from apoptosis, % (concentration not given with the values) | 0.8% of 300,000 active | AID 435005, 2010;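 active means all replicates at 75% or more, or half of them and the mean; inconclusive means half reach 75% but not the mean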;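 further: 0% = cytokine-treated negative control wells and 100% = positive control rescue; higher means more ATP so stronger rescue from cytokine killing; wells of about 40 µL received 100 nL stock; the first replicate is given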
UCH37 DUB inh: inhibitors of human UCH37 deubiquitinase, primary screen, biochemical, Ub-AMC cleavage, fluorescence | Ubiquitin carboxyl-terminal hydrolase isozyme L5 (Homo sapiens), Q9Y5K5 | purified proteasome/UCH37 | inhibition, % (concentration not given with the values) | 0.33% of 330,000 active | AID 588478, 2011;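 active means mean of two replicates above 20%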;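 further: 0% = compound-free wells with enzyme and 100% = wells lacking proteasome; stock transfer was 100 nL into about 20 µL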
Target sequence (Q9Y5K5 whole entry, looked up): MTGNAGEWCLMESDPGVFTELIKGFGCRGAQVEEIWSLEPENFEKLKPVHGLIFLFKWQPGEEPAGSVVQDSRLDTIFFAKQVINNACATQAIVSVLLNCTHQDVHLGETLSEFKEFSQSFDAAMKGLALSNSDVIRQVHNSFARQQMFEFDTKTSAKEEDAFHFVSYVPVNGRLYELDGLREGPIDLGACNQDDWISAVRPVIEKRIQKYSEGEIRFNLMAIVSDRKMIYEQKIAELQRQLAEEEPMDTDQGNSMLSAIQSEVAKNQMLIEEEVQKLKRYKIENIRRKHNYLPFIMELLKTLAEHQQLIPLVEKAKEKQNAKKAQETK
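Material: human UCH37 enzyme supplied as purified proteasome complex / Amount: 0.15 nM proteasome as dispensed / Buffer or medium: pH 7.4 Tris-HCl (50 mM) with ovalbumin, ATP-MgCl2, DTT / Times: preincubation 30 min, reaction 25 min, room temperature / Technique: AMC fluorescence from Ub-AMC cleavage, excitation 355 nm, emission 460 nm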
* hit, by the source's call; ? = inconclusive; . = no result given.

SMILES	Beta2AR agonist	T cruzi repl	A1 inh	Calb FLC	RanGTP-Imp inh	LANA-H2A inh	Beta apoptosis	UCH37 DUB inh
CC(C)N(Cc1nc(-c2ccccc2)no1)C(=O)CSc1ccccc1	-0.8	18.5	0.0	-0.7	11.5	1.6	-6.2	3.1
O=C(N/N=C(\c1ccccc1)c1cccnc1)c1cc(O)ccc1O	.	65.3*	-0.4	6.9	-3.0	4.1	-17.7	.
Cc1cccc(NC(=O)CSc2nnc(CNC(=O)c3ccc(S(=O)(=O)N(C)C)cc3)n2-c2cccc(C)c2)c1	1.3	11.0	-1.0	-1.7	1.6	5.5	-4.7	4.8
COc1ccc(CCC(=O)N2CCCc3ccccc32)cc1	-3.5	10.9	0.3	-7.2	-3.5	2.1	-1.8	4.1
COc1ccc(CCC(=O)NCCc2nc3ccccc3[nH]2)cc1	-4.4	11.5	1.6	-8.4	0.2	-1.7	-9.3	3.1
CC(C)C(NC(=O)c1ccc(F)cc1)C(=O)N1CCOCC1 (stereo unspecified)	-9.8	.	0.2	.	.	1.0	-5.0	3.6
Cc1ccc(-c2nonc2NC(=O)c2ccco2)cc1	11.9	-3.2	-1.9	-3.5	3.5	-2.2	-2.6	3.0
CCOC(=O)C1=C(CC)Nc2ccccc2N/C1=N\S(=O)(=O)c1ccc2ccccc2c1	3.7	-5.4	2.1	20.3	-2.3	0.6	5.2	1.2
Cc1ccc(S(=O)(=O)NCC(=O)NCc2cc(=O)n(C)c(=O)n2C)cc1	0.9	-3.0	0.1	.	-2.2	-9.8	-1.1	4.9
CCCOc1ccc(/C(O)=C2/C(=O)C(=O)N(CCN(C)C)C2c2ccncc2)cc1 (stereo unspecified)	-3.1	.	0.3	.	.	-0.7	-3.4	13.1
CCC(C(=O)NCc1ccco1)N(C(=O)CNS(=O)(=O)c1ccccc1)c1ccc(F)cc1 (stereo unspecified)	5.5	8.2	1.5	-2.4	-0.6	3.4	4.1	1.8
Cc1ccc(CCNS(=O)(=O)c2c(C)nc3sccn3c2=O)cc1	2.9	-10.9	-0.1	0.0	5.8	-0.3	-2.9	-27.6
COc1ccc(OCCC(=O)Nc2cc(C)on2)cc1	-6.5	2.9	0.7	-0.2	0.8	-2.8	-1.7	4.7
COc1cccc(-n2nc(-c3ccnn3-c3ccc(C)cc3)c(=O)n(C)c2=O)c1	2.5	19.1	0.1	13.6	4.4	4.8	-1.9	0.6
Cc1[nH]c2ccccc2c1C(=O)COC(=O)c1c(-c2c(F)cccc2Cl)noc1C	1.9	39.3	0.8	-5.5	0.9	3.8	3.7	4.3
COC(=O)c1cnn(-c2cc(Oc3ccccc3)ncn2)c1N	4.1	8.1	-0.9	5.7	-3.9	-3.2	-7.2	0.6
CCOC(=O)Nc1n[nH]c(NC(=O)OCC)c1[N+](=O)[O-]	-9.3	-11.0	0.0	6.5	?	-0.1	-6.4	4.2
COc1ccccc1N1C(=O)C2C(C(=O)c3ccccc3)=NN(c3ccccc3)C2C1=O (stereo unspecified)	-4.5	-0.8	-0.3	12.9	-136.4	-1.8	-1.6	-44.9
COc1ccccc1Oc1c(C)oc2c(CN3CCN(C)CC3)c(O)ccc2c1=O	.	-15.0	-0.2	-8.5	?	-1.1	4.5	-180.9
CCOC(=O)N1CCC(NC(=O)c2cc(COc3c(C)cccc3C)on2)CC1	-4.2	-23.8	-0.2	13.5	-0.7	-11.1	1.6	3.0
CCN1CCN(CC(=O)c2ccc(OC)cc2)CC1	1.6	15.8	1.1	-0.2	5.7	-7.2	-4.0	3.6
Cc1ccccc1Nc1nc(CSc2nnc(-c3ccoc3C)n2C)cs1	0.1	-0.9	0.8	-3.5	-0.2	4.7	-3.8	5.7
CCCCNC(=O)c1onc(CSc2ccccn2)c1C(=O)NCCCC	-0.1	10.2	-1.3	-3.9	-4.5	2.9	.	-3.2
COC(=O)c1[nH]c2c(c1C)C(=O)CC(c1cccc(OC)c1)C2 (stereo unspecified)	12.9	34.9	2.6	-2.9	0.6	-5.3	30.8	-1.1
C=CCn1c(C)nnc1SCC(=O)Nc1ccc2c(c1)OCCO2	-2.9	.	1.1	.	.	-3.1	6.0	2.2
Cc1ccc(C(=O)NS(=O)(=O)c2ccc(C)cc2)cc1	-2.5	-18.8	0.5	-6.2	8.0	2.1	-6.5	-0.2
O=S(=O)(c1cccc(-c2cn3cccnc3n2)c1)N1CCCCCC1	1.6	11.6	-1.3	-32.1	-0.3	-1.8	-1.5	-138.4
COC(=O)c1ccc(CSc2nc3c(cnn3-c3ccc(C)c(C)c3)c(=O)[nH]2)o1	0.1	.	0.9	.	.	-0.2	.	4.1
COc1ccc(C(=O)NCCNC(=O)c2ccc(C)nc2)cc1	-0.3	-3.2	0.5	3.6	-1.9	3.0	2.4	2.6
CC(C)[C@H](NC(=O)c1ccccc1)C(=O)OCC(=O)NCCC1=CCCCC1	-1.4	-4.3	-0.8	9.4	2.8	2.4	2.7	0.9
COc1ccc(-c2coc3c(CN4CCCCC4)c(O)c(CN4CCCCC4)c(O)c3c2=O)cc1	.	48.8	-0.3	4.0	3.4	-2.3	-2.9	.
CCc1cc(-c2n[nH]c(C)c2-c2nc3ccccc3n2C)c(O)c(CN2CCN(C)CC2)c1O	15.5	-6.8	0.3	-31.7	-4.6	-7.4	-8.6	1.6
Cc1ccc2c(c1)c1c(n2CC(O)CN2CCC(C)CC2)CCCC1 (stereo unspecified)	14.5	29.9	0.1	3.9	1.3	-2.2	6.7	5.3
Cc1ccc(S(=O)(=O)[N-]c2nc3ccccc3nc2-[n+]2cc(C)cc(C)c2)cc1	2.8	-13.0	-2.8	?	-1.6	-1.0	-4.7	5.1
CC(C)NC(=O)CN1CCN(Cc2nc(-c3cccs3)no2)CC1	-4.0	-8.3	1.6	-5.3	0.3	7.7	-3.6	4.9
CC(C)NC(=O)COc1ccc(S(=O)(=O)N2CCCC2)cc1	-9.7	-9.2	-0.6	-5.5	11.3	1.0	-9.1	1.5
c1ccc2c(-c3c[nH]c4ccccc34)c3ccccc3nc2c1	-3.4	30.9	-0.9	1.8	1.4	3.9	-3.6	-75.2
COc1ccccc1NCCC(=O)OCC(=O)NC1CC1	5.3	-1.9	1.2	-1.6	-0.6	-2.7	-2.6	-3.0
C#CCOCCOCCOCCNc1nc(N2CCN(C(=O)C([C@@H](C)O)n3cc([C@@H](N)CCCCN)nn3)CC2)nc(N2CCN(C(=O)[C@H](CCCN=C(N)N)n3cc(C(N)[C@@H](C)CC)nn3)CC2)n1 (stereo partly specified)	1.5	.	-0.1	.	.	-7.3	-16.0	1.6
COc1cc(/C=C/C(=O)Nc2ccc(C)cc2)cc(OC)c1OC	4.0	-4.1	1.4	-4.7	-0.1	-7.9	2.9	4.8
COc1cccc(CNS(=O)(=O)c2cc(Br)cc3c2N(C(C)=O)C(C)C3)c1 (stereo unspecified)	11.2	15.8	0.7	-11.4	1.4	-3.8	1.3	4.9
CCc1ccc(/C=N/NC(=O)c2nnn(-c3nonc3N)c2CN2CCOCC2)cc1	-0.5	-1.0	-1.1	-14.2	-0.3	0.8	0.3	.
C[C@@H]1NC(=O)c2cc([N+](=O)[O-])cc(I)c2NCC[C@@H](C(N)=O)NC(=O)[C@H](CC(N)=O)NC1=O	-5.1	.	0.9	.	.	18.4*	-1.7	4.3
C#CCOCCOCCOCCNc1nc(N2CCN(C(=O)C([C@@H](C)CC)n3cc(C(N)COC(=O)C(F)(F)F)nn3)CC2)nc(N2CCN(C(=O)C([C@@H](C)CC)n3cc(C(N)CC(C)C)nn3)CC2)n1 (stereo partly specified)	.	0.3	-0.3	1.8	-3.2	-0.1	-3.1	0.5
COc1ccc(N(CC(=O)NCCc2ccc(C)cc2)S(=O)(=O)c2c(C)noc2C)cc1	3.0	19.5	0.6	5.1	-3.2	-2.0	4.6	5.6

Sorted by molecular weight (descending): part of the list above
SMILES	Beta2AR agonist	T cruzi repl	A1 inh	Calb FLC	RanGTP-Imp inh	LANA-H2A inh	Beta apoptosis	UCH37 DUB inh
C#CCOCCOCCOCCNc1nc(N2CCN(C(=O)C([C@@H](C)CC)n3cc(C(N)COC(=O)C(F)(F)F)nn3)CC2)nc(N2CCN(C(=O)C([C@@H](C)CC)n3cc(C(N)CC(C)C)nn3)CC2)n1 (stereo partly specified)	.	0.3	-0.3	1.8	-3.2	-0.1	-3.1	0.5
COc1cccc(CNS(=O)(=O)c2cc(Br)cc3c2N(C(C)=O)C(C)C3)c1 (stereo unspecified)	11.2	15.8	0.7	-11.4	1.4	-3.8	1.3	4.9
Cc1ccc2c(c1)c1c(n2CC(O)CN2CCC(C)CC2)CCCC1 (stereo unspecified)	14.5	29.9	0.1	3.9	1.3	-2.2	6.7	5.3
CC(C)NC(=O)COc1ccc(S(=O)(=O)N2CCCC2)cc1	-9.7	-9.2	-0.6	-5.5	11.3	1.0	-9.1	1.5

Next results:
SMILES	Beta2AR agonist	T cruzi repl	A1 inh	Calb FLC	RanGTP-Imp inh	LANA-H2A inh	Beta apoptosis	UCH37 DUB inh
COc1ccc2nc(NC(=O)CCNC(=O)c3ccccc3Cl)sc2c1	-1.4	-4.8	0.8	30.3	0.2	-2.6	1.2	-1.7
CCN(CC)C(=O)COc1ccc2c3c(c(=O)oc2c1)CCCC3	-13.4	12.0	0.3	12.8	-2.2	-0.2	-0.2	-77.5
COc1cc(OC)c2c(C)c(Cl)c(=O)oc2c1	-2.0	-2.4	0.1	-1.8	1.7	-5.2	13.0	-295.7
Cc1ccc(/C=N/NC(=O)CN(Cc2ccccc2)S(=O)(=O)c2ccc3c(c2)OCCO3)cc1	6.5	21.3	-0.7	-14.7	8.5	0.3	-6.7	.
COC(=O)c1ccccc1NC(=O)/C=N/O	1.2	2.6	0.8	-6.9	-1.9	3.5	-1.8	.
C=CCNC(=O)COc1ccc(S(=O)(=O)Nc2ccc(OCC)cc2)cc1	-4.0	-7.2	-0.5	-7.3	3.9	0.1	.	2.0
COc1ccc2c(c1OC)C(=O)N1N=C(c3ccc(Br)cc3)CC21 (stereo unspecified)	-4.3	19.1	-0.3	24.0	2.8	4.2	-2.1	-2.2
CCN1C(=O)/C(=C\c2ccncc2)SC1=Nc1ccc(C)c(C)c1	8.3	28.8	0.1	2.5	0.1	1.2	8.0	5.3
CCOc1ccc(NS(=O)(=O)c2ccc(C(=O)NCC3(N4CCCCC4)CCCCC3)cc2)cc1	39.3	32.2	0.1	0.9	?	-1.9	-3.5	5.1
O=C1Cc2cc(NS(=O)(=O)c3ccc(Cl)cc3)cc3c2N1CCC3	1.4	-4.6	-0.2	0.7	1.5	0.3	1.5	6.0
O=S(=O)(c1cnccc1N1CCN(/N=C/c2ccccc2)CC1)N1CCCCC1	-2.5	32.4	0.0	-19.2	3.9	-2.8	-2.5	.
O=C(C1=C[C@H](c2ccccc2)C[C@H](OCc2ccc(CO)cc2)O1)N1CCN(Cc2ccc3c(c2)OCO3)CC1	3.9	32.7	0.4	-2.7	-2.2	-1.0	-3.1	4.1
